TRPML1 agonist = qHTS for Agonists of the Human Mucolipin Transient Receptor Potential 1 (TRPML1) | Mucolipin-1 (Homo sapiens), Q9GZU1 | TRPML1-expressing cells, Ca2+ dye fluorescence, FDSS; host cell line not named in the record; reference of the full effect not given here | activation, % (no concentration beside the values) | actives 0.12% (n = 410,000) | AID 624414, 2012; in the data active = activation above about 50%; inconclusive = about 30% to 50%; inactive = below about 30%; also: 0% is about no effect; the text of the record puts the active cut at 80%
Target sequence (Q9GZU1 whole entry, looked up): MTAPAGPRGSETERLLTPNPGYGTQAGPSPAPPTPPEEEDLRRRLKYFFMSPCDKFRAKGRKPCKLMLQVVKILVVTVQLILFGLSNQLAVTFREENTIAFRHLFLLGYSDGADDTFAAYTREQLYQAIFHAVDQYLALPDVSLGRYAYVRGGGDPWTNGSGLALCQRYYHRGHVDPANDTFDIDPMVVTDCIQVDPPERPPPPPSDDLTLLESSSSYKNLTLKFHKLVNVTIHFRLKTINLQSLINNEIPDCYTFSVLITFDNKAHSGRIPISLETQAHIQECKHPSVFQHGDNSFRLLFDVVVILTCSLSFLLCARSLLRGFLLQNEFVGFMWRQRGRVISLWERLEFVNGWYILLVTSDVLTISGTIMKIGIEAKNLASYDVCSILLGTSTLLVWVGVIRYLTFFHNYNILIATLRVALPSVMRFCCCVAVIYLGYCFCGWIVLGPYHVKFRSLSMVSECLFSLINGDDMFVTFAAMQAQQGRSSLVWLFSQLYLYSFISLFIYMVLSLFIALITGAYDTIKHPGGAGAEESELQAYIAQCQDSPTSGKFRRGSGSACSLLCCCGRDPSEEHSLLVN
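Cells: TRPML1-DL, 1X Tet inducer, ~16 h at 37 degrees C/5% CO2. Dye: ABD Ca8 no-wash + quencher, 45-90 min RT. Read: 10 s baseline, compound add, 110 s agonist phase; 54-4 EC80 (4uM final), 110 s antagonist phase.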
D2 potentiator = Beta-Arrestin HTS for Positive Allosteric Modulators of the Human D2 Dopamine Receptor: Potentiators | D(2) dopamine receptor (Homo sapiens), P14416 | DiscoveRx D2 beta-arrestin cells, luminescence, 90 min; 100% = 57 uM dopamine signal | potentiation, % (concentration not given with the values) | actives 0.23% (n = 360,000) | AID 624464, 2012; active = potentiation of 50% or more; inconclusive = 30% to 50%; inactive = 30% or less;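 also: compound concentration not given in the record; tested on top of an EC20 dose of dopamine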
Target sequence (P14416 whole entry, looked up): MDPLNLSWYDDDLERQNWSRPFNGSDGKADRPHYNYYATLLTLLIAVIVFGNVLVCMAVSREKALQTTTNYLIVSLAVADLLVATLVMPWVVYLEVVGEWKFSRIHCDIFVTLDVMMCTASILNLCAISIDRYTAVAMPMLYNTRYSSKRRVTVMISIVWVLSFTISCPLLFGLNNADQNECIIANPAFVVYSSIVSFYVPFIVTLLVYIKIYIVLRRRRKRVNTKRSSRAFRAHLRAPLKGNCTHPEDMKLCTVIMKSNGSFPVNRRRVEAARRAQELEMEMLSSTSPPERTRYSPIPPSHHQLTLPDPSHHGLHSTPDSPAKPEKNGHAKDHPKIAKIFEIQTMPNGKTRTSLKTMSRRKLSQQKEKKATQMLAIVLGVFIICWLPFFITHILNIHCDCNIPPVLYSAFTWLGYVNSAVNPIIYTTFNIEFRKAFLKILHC
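PathHunter D2 cells, attached overnight at 37 deg C, received compound in DMSO plus dopamine at EC20 (50 nM final) for 90 min at 37 deg C. Beta-arrestin recruitment was read as luminescence after 1 h with detection reagent at ambient temperature.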
D2 agonist = Beta-Arrestin HTS for Positive Allosteric Modulators of the Human D2 Dopamine Receptor: Agonists; DiscoveRx PathHunter D2 beta-arrestin, luminescence, 90 min; 100% = 57 uM dopamine signal; activation, % (concentration not given with the values); actives 0.084% (n = 360,000); in the data active = activation above about 40%; inconclusive = about 15% to 40%; inactive = below about 15%; also: compound concentration not given in the record; the text of the record calls up to 30% inactive
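Agonist mode: compounds alone added to overnight-plated D2 PathHunter cells for 90 min at 37 C, with 57 uM final dopamine (EC100) defining full response. Beta-arrestin recruitment detected by chemiluminescent reagent, read after 1 h at ambient temperature.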
Six1-Eya2 inh = qHTS Assay for Inhibitors of the Six1/Eya2 Interaction | Homeobox protein SIX1 (Homo sapiens) + Protein phosphatase EYA2 (Homo sapiens), … | AlphaScreen GST-Six1/His-Eya2 binding, biochemical; hits give low values; control for the full effect not named in the record | activity change, % (no concentration beside the values) | actives 0.56% (n = 360,000) | AID 651725, 2012; in the data active = activity change below about -65%; inconclusive = about -30% to -65%; inactive = above about -30%; also: % is scaled to controls: 0 for no effect and ±100 for the full control effect; compound concentration not given in the record
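Six1/Eya2 binding was read as AlphaScreen signal after compounds were pinned into GST-Six1 plus His-tagged Eya2 (5X stock 250/500 nM) in pH 8.0 Tris/NaCl/TCEP buffer, beads added, then incubated 1 h, 37 C, dark.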
CtBP-E1A inh = qHTS Assay for Inhibitors of the CtBP/E1A Interaction | actives 0.49% (n = 340,000) | activity change, % (no concentration beside the values) | AlphaScreen GST-E1A/His-CtBP binding, 1536-well; hits give low values; control for the full effect not named in the record; in the data active means activity change below about -65%; inconclusive means about -30% to -65%; inactive means above about -30%; also: % is scaled to controls: 0 for no effect and ±100 for the full control effect; compound concentration not given in the record
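AlphaScreen with 125 nM GST-E1A and 125 nM His-CtBP (5X stocks) in Tris pH 8.0, 300 mM NaCl, BSA, Tween 20, TCEP. Compounds preincubated 2 h at 37 deg C, then glutathione donor/nickel acceptor beads added for 1 h at 37 deg C in dark.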
PINK1 modulator = A Quantitative High throughput Screen to Identify Chemical Modulators of PINK1 Expression | PINK1 immunofluorescence, high-content cytometry, 24 h | Potency, µM (series often up to 76.6 µM), for the others: at the highest dose activation (PINK1 increase), actives largely listed as activators | actives 0.2% (n = 410,000) | AID 624263, 2012; active = well fitted activation curve with a large enough effect; inconclusive = small, poorly fitted or top-dose-only effect; inactive = flat fitted curve, though single readings scatter; cell line not stated here;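 also: potency is read from the fitted curve at half-maximal effect; % of control where 0% means no effect; nearly all actives have a fitted effect of over 65% in size; a mitochondrial uncoupler was the plate control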
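Decision-based qHTS: stable cells, 24 h exposure to five compound concentrations, CCCP as control. Fixed cells stained for PINK1 plus nuclear, mitochondrial and cell markers, cytometer read.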
The depositor's hits bear a star; ? = inconclusive; . = no result given; [ ] = dose if it differs, or a comment.

1. O=c1c2ccccc2c(-c2ccccc2)nn1Cc1c(Cl)cccc1Cl
2. CSc1ncc(C(=O)NCCCc2ccccc2)c(C)n1
3. CCOc1cc(C2NN=C(c3ccc(C)cc3)S2)ccc1O (configuration not stated)
4. Cc1cccc(C)c1OCC(O)CNS(=O)(=O)c1ccccc1C(=O)N1CCOCC1 (configuration not stated)
5. Cc1cc(=O)oc2c(C(=O)c3ccccc3)c(OCC(N)=O)ccc12
6. COc1ccccc1C(=O)OCC(=O)NC12CC3CC(CC(C3)C1)C2
entry no.	1	2	3	4	5	6
TRPML1 agonist	0.0	1.5	0.0	-0.7	0.9	0.3
CtBP-E1A inh	-23	0	6	7	.	-9
Six1-Eya2 inh	-2	-1	0	2	0	7
D2 potentiator	-13	-13	-14	-17	3	17
D2 agonist	0.2	-1.8	-6.3	-2.4	-1.7	-2.2
PINK1 modulator	4.7%[38.3 µM]	-0.3%	1.8%	5.3%	0.2%	-3.0%

7. CCCNC(=O)C1CC(=O)N(c2ccc(OCc3ccc(F)cc3)cc2)C1 (configuration not stated)
8. CCN1C(=Nc2ccc(Cl)cc2)SC/C1=C\C(=O)OC
9. COc1ccc(-c2c(-c3ccsc3)oc3ccc(N4CCOCC4)cc23)cc1
10. O=C(NCCCN1CCOCC1)c1cccc(S(=O)(=O)NCc2ccccc2)c1
11. CCCCC(=O)Nc1ccc2c(c1)nc(CCN1CCOCC1)n2C
12. O=C1NC(Cc2ccccc2)c2nc3ccc(Cl)cc3c(=O)n2-c2ncccc21 (configuration not stated)
entry no.	7	8	9	10	11	12
TRPML1 agonist	-0.3	1.3	-0.2	-1.3	-0.1	-0.3
CtBP-E1A inh	1	9	.	9	2	-3
Six1-Eya2 inh	5	-2	-8	1	1	0
D2 potentiator	-1	13	-2	14	2	-1
D2 agonist	-4.1	2.0	-0.1	-0.1	-2.5	-11
PINK1 modulator	4.1%	.	3.1%	1.3%	0.9%	4.8%

13. Cn1cccc1C(=O)Nc1nc(-c2ccccn2)cs1
14. COCCNS(=O)(=O)c1cc2[nH]c3c(c2cc1C)C(=O)CC(C)(C)C3
15. CC(OC(=O)c1ccc(NS(=O)(=O)c2ccc3[nH]c(=O)[nH]c3c2)cc1)C(N)=O (configuration not stated)
16. CC(C)Cn1cnc2sc3c(c2c1=N)CCCC3
17. COc1ccc(CC(=O)Nc2nnc(SCc3ccccc3)s2)cc1S(=O)(=O)N1CCOCC1
18. COc1ccc(C(=O)Nc2nc(-c3ccc(OC)cc3)c(-c3ccc([N+](=O)[O-])cc3)s2)cc1
entry no.	13	14	15	16	17	18
TRPML1 agonist	-1.3	1.3	1.3	-0.3	2.0	1.5
CtBP-E1A inh	-89*	1	2	12	1	-8
Six1-Eya2 inh	-86*	9	8	0	-10	1
D2 potentiator	17	-3	4	-5	10	-13
D2 agonist	1.4	-4.3	4.8	-2.7	-0.7	0.2
PINK1 modulator	1.9%	1.8%	2.0%	3.5%	-0.2%	-1.2%

Shown with each value named: entries from further up.
(7) CCCNC(=O)C1CC(=O)N(c2ccc(OCc3ccc(F)cc3)cc2)C1 (configuration not stated)
  TRPML1 agonist = -0.3; CtBP-E1A inh = 1; Six1-Eya2 inh = 5; D2 potentiator = -1; D2 agonist = -4.1; PINK1 modulator = 4.1%
(3) CCOc1cc(C2NN=C(c3ccc(C)cc3)S2)ccc1O (configuration not stated)
  TRPML1 agonist = 0.0; CtBP-E1A inh = 6; Six1-Eya2 inh = 0; D2 potentiator = -14; D2 agonist = -6.3; PINK1 modulator = 1.8%
(2) CSc1ncc(C(=O)NCCCc2ccccc2)c(C)n1
  TRPML1 agonist = 1.5; CtBP-E1A inh = 0; Six1-Eya2 inh = -1; D2 potentiator = -13; D2 agonist = -1.8; PINK1 modulator = -0.3%
(9) COc1ccc(-c2c(-c3ccsc3)oc3ccc(N4CCOCC4)cc23)cc1
  TRPML1 agonist = -0.2; CtBP-E1A inh = .; Six1-Eya2 inh = -8; D2 potentiator = -2; D2 agonist = -0.1; PINK1 modulator = 3.1%

The list continues.
19. CC(=O)NC(Cc1cnc[nH]1)C(=O)O (configuration not stated)
20. COc1ccc(C(=O)Nc2ccccc2C(=O)N2CCCCCC2)cc1
21. CC(C)(C)n1nnnc1C(c1cc2ccccc2o1)N(CCC#N)Cc1ccccc1 (configuration not stated)
22. O=C(OCC(O)C(O)C(O)C(SCc1ccccc1)SCc1ccccc1)c1ccccc1 (configuration not stated)
23. C#CCNC(=O)C1=C[C@H](c2csc3ccccc23)C[C@H](OCCCCO)O1
24. COc1ccc(C/C(N)=N/OC(=O)CCc2ccccc2)cc1
entry no.	19	20	21	22	23	24
TRPML1 agonist	0.6	0.5	0.4	1.2	0.3	1.2
CtBP-E1A inh	-6	-5	3	-5	6	29
Six1-Eya2 inh	5	6	-1	-6	3	25
D2 potentiator	-5	-2	.	-9	-3	3
D2 agonist	-0.6	-1.1	.	-1.8	0.0	2.4
PINK1 modulator	-1.7%[38.3 µM]	-0.7%	-1.1%	1.7%	1.0%	2.5%

25. O=CN1CCN(C(=O)c2ccc(-c3nc4ccccc4s3)s2)CC1
26. NC(=O)CC(NC(=O)Cc1ccc(Cl)cc1)c1ccc(NC2CC3CCC2C3)c([N+](=O)[O-])c1 (configuration not stated)
27. NC(=S)N/N=C/c1c(O)ccc2ccccc12
28. Cn1c(=NC(=O)c2cccc([N+](=O)[O-])c2)sc2ccccc21
29. Cc1ccc(C)c(S(=O)(=O)N2CCN(c3nc(-c4cccnc4)nc4ccccc34)CC2)c1
30. Cn1c(=O)c2cc(S(=O)(=O)NCCC(=O)N3CC=C(c4ccccc4)CC3)ccc2n(C)c1=O
entry no.	25	26	27	28	29	30
TRPML1 agonist	-0.2	1.7	0.0	-0.3	1.1	0.0
CtBP-E1A inh	.	?	.	5	-12	-86*
Six1-Eya2 inh	8	-15	-91*	-15	-12	?
D2 potentiator	-15	-15	-24	-2	3	-11
D2 agonist	-2.8	-2.6	-4.9	-1.3	0.5	-1.6
PINK1 modulator	-0.2%	0.1%	0.3%	2.5%	3.1%	1.0%[38.3 µM]

Single records, as listed above. Order of values: TRPML1 agonist | CtBP-E1A inh | Six1-Eya2 inh | D2 potentiator | D2 agonist | PINK1 modulator
COc1ccc(C(=O)Nc2ccccc2C(=O)N2CCCCCC2)cc1 across the screens: 0.5 | -5 | 6 | -2 | -1.1 | -0.7%
COc1ccc(CC(=O)Nc2nnc(SCc3ccccc3)s2)cc1S(=O)(=O)N1CCOCC1 across the screens: 2.0 | 1 | -10 | 10 | -0.7 | -0.2%
NC(=O)CC(NC(=O)Cc1ccc(Cl)cc1)c1ccc(NC2CC3CCC2C3)c([N+](=O)[O-])c1 (configuration not stated) across the screens: 1.7 | ? | -15 | -15 | -2.6 | 0.1%
Cc1cc(=O)oc2c(C(=O)c3ccccc3)c(OCC(N)=O)ccc12 across the screens: 0.9 | . | 0 | 3 | -1.7 | 0.2%
COc1ccc(-c2c(-c3ccsc3)oc3ccc(N4CCOCC4)cc23)cc1 across the screens: -0.2 | . | -8 | -2 | -0.1 | 3.1%

(listing goes on)
31. Cc1cc(C)c(NS(=O)(=O)c2ccc3c(c2)oc(=O)n3C)c(C)c1
32. COC(=O)c1cccnc1-n1c(=O)c2cccnc2n(Cc2ccc(Cl)cc2)c1=O
33. CCOC(=O)C1CCN(C(=O)/C=C/c2ccc(S(=O)(=O)N3CCOCC3)cc2)CC1
34. COc1ccc(C(=O)Nc2ccc3c(c2)C(=O)NC3=O)cc1
35. COc1ccccc1N1CC(C(=O)Nc2nc(C)cs2)CC1=O (configuration not stated)
36. O=c1c2ccccc2ncn1CCCSc1ccccc1
entry no.	31	32	33	34	35	36
TRPML1 agonist	0.1	0.6	-0.5	-0.3	-0.2	0.6
CtBP-E1A inh	3	2	-1	-2	11	0
Six1-Eya2 inh	-1	-1	1	7	2	10
D2 potentiator	-6	6	4	-7	-17	11
D2 agonist	-1.4	-2.0	-0.1	-5.9	-2.5	-1.3
PINK1 modulator	1.1%	4.7%[38.3 µM]	1.8%	3.8%	0.9%	0.0%

37. CN(C)c1ccc(/C=C/C#N)cc1
38. O=C(Nc1cc(C(F)(F)F)ccc1N1CCOCC1)c1ccc[n+]([O-])c1
39. Cc1ccc(SCC(=O)NC(=O)NC2CCCC2)c(C)c1
40. CCOC(=O)NC(O)C(=O)c1ccc(F)cc1 (configuration not stated)
41. C=CCNC(=O)CC(=O)N/N=C/c1ccc(C(=O)OC)cc1
42. COc1ccc(-n2cc(CN(C)C(C)c3ccncn3)c(-c3cccc(F)c3)n2)cc1 (configuration not stated)
entry no.	37	38	39	40	41	42
TRPML1 agonist	1.4	-0.4	3.4	2.5	-0.9	1.6
CtBP-E1A inh	-2	7	7	5	8	3
Six1-Eya2 inh	-5	11	9	4	5	-8
D2 potentiator	-8	1	4	-3	-9	-1
D2 agonist	-6.4	-3.0	-1.8	0.8	1.1	0.6
PINK1 modulator	0.4%	0.6%	1.9%	-1.5%	-0.4%	1.7%

43. COCCn1c(=S)[nH]c2cc(C(=O)NC3CCCCCC3)ccc2c1=O
44. Cc1cccc2c(=O)c(C(=O)NCCCN3CCOCC3)c[nH]c12
45. COc1ccc(NC(=O)COc2ccccc2F)cc1S(=O)(=O)N1CCCCC1
46. O=C(NNC(=O)c1cc(Br)ccc1O)c1csc(N2CCOCC2)n1
47. Cc1cc(C)n(-c2ccc(C(=O)Nc3ccc(N4CCOCC4)cc3)cc2)n1
48. CN(CC(=O)Nc1ccccc1C(F)(F)F)C(=O)CCc1nc2sc3c(c2c(=O)[nH]1)CCCC3
49. CN(CC1COc2ccccc2O1)C(=O)CCNS(=O)(=O)c1ccc(F)c(Cl)c1 (configuration not stated)
50. CCn1c(Sc2ccc(N)cc2Cl)nc2ccccc21
51. O=C(Nc1cccc(Cl)c1)C1CCCN(S(=O)(=O)c2cnc[nH]2)C1 (configuration not stated)
entry no.	43	44	45	46	47	48	49	50	51
TRPML1 agonist	-0.4	0.7	-0.3	-0.5	-0.8	-0.5	-1.4	2.5	-0.5
CtBP-E1A inh	1	0	-1	-20	3	-2	-1	9	-1
Six1-Eya2 inh	5	0	-9	-17	2	1	-8	-2	-10
D2 potentiator	2	-11	1	-3	-23	7	-17	6	-6
D2 agonist	-0.2	-1.2	-1.0	-0.8	-1.2	-3.4	0.5	1.7	-7.3
PINK1 modulator	4.5%	11%[38.3 µM]	0.7%	-1.1%	-0.5%	5.4%	1.3%	.	1.2%

Screening results: PubChem, National Center for Advancing Translational Sciences (NCATS)

Random draw from the library; overall some 1.3% were active at least once.
